# Cruzain Triton – blocks cruzain activity in presence of Triton detergent; 200,000 tested, 0.43% active; Potency, µM, for the others: max response, negative = inhibition, most hits filed as inhibitors; P25779; purified cruzain, Z-FR-AMC fluorescence, 0.01% Triton;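 further: plate controls were neutral wells for no effect and buffer without enzyme for full effect; nearly all actives have a fitted effect of over 40% in size; top concentration of the series not given in the record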
# Target sequence (P25779 123-467 limits assumed): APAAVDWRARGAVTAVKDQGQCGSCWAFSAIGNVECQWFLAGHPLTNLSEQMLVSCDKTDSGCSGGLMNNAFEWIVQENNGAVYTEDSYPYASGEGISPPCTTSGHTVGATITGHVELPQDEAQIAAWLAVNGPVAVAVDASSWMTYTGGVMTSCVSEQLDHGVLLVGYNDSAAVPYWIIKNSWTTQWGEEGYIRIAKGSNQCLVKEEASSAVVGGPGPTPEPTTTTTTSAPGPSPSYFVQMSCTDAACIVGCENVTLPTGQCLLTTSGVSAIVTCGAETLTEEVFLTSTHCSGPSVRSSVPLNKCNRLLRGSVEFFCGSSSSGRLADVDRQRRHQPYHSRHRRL
#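 Z-FR-AMC hydrolysis (2 uM substrate) by cruzain (1.5 nM) monitored kinetically at ex 360/em 450 nm after 15 min room-temperature compound exposure; 0.01% Triton X-100, pH 5.5, 5 mM DTT.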
# Cruzain noTriton – cruzain (T. cruzi) inhibition without detergent | purified cruzain, Z-FR-AMC fluorescence, no detergent | AID 1476 | 200,000 tested, 2.3% active | Potency, µM, for the others: max response, negative = inhibition, most hits filed as inhibitors | P25779;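 further: plate controls were enzyme without inhibitor for no effect and buffer without enzyme for full effect; nearly all actives have a fitted effect of over 40% in size; top concentration of the series not given in the record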
#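 Purified cruzain at 1.5 nM, pre-incubated 15 min with compound at room temperature in 100 mM sodium acetate pH 5.5, 5 mM DTT, 0.00005% Triton X-100. Reaction started with 2 uM Z-FR-AMC; AMC fluorescence increase over 60 s gives rate.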
# LASV entry inh – Lassa virus entry inhibition. Lassa virus pseudotype entry inhibition, cell reporter; control for the full effect not named in the record. Potency, µM (series often up to 37.9 µM), for inactives: at the top dose activity change, negative = inhibition, usual class: inhibitors. 300,000 tested, 1.2% active. AID 540256; active means well fitted inhibition curve with a large enough effect; inconclusive means small, poorly fitted or top-dose-only effect, or effect the other way; inactive means flat fitted curve, though single readings scatter; tested in HEK293 cells; further: on the % scale 0 is the no-effect control and ±100 the full control effect; nearly all actives have a fitted effect of over 50% in size; luciferase read-out
# RE007 growth inh – less growth of the S. pombe RE007 Vpr strain; Potency, µM (highest dose often 92.2 µM), without a hit: at the highest dose activity change, negative = less growth; S. pombe RE007 Vpr strain, BacTiter-Glo ATP luminescence, 24 h; control for the full effect not named in the record; AID 651644; 360,000 tested, 0.21% active; active = well fitted falling curve with a large enough effect; inconclusive = small, poorly fitted or top-dose-only effect; inactive = no such curve, though single readings can be large or run the other way;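 further: on the % scale 0 is the no-effect control and ±100 the full control effect; nearly all actives have a fitted effect of over 50% in size; the assay follows cell death caused by Vpr and the record does not say whether a fall means rescue or toxicity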
#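 Fission yeast RE007 carrying one integrated HIV-1 vpr copy, seeded at OD 0.01 in PMG+AL medium with 23 nL pinned compound. Grown 24 h at 30 degrees; viability read by BacTiter-Glo luminescence after 5 min.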
# StopGo reporter – FMDV 2A StopGo reporter, luciferase signal; 410,000 tested, 1.2% active; Potency, µM (doses to about 57.9 µM), for inactives: top-dose signal change, negative = less light; human cells with a luciferase reporter of 2A StopGo recoding; control for the full effect not named in the record; active = well fitted falling curve with a large enough effect; inconclusive = small, poorly fitted or top-dose-only effect; inactive = no such curve, though single readings can be large or run the other way; tested in HEK293T cells; further: on the % scale 0 is the no-effect control and ±100 the full control effect; nearly all actives have a fitted effect of over 45% in size; luciferase light after 4 h
# SARS PLpro yeast – inhibitors of SARS-CoV papain-like protease in yeast; AID 485353; 330,000 tested, 0.19% active; S. cerevisiae expressing SARS-CoV PLpro, growth rescue; control for the full effect not named in the record; Potency, µM (titrated, usually from 32.9 µM), inactives show at the top dose activity, positive = growth rescue; active means well fitted rising curve with a large enough effect; inconclusive means small, poorly fitted or top-dose-only effect; inactive means no such curve, though single readings can be large or run the other way; further: 0% is about no effect; nearly all actives have a fitted effect of over 55% in size; growth read by luminescence after 48 h
# Marburg entry inh – inhibitors of Marburg virus binding or cell entry | Marburg virus pseudotyped entry inhibition, cell reporter; control for the full effect not named in the record; about a third of the inactives were read at about 46 µM | Potency, µM (titrated, usually from 37.8 µM), without a hit: at the highest dose activity change, negative = inhibition, actives largely listed as inhibitors | 300,000 tested, 1.8% active | AID 540276; active = well fitted inhibition curve with a large enough effect; inconclusive = small, poorly fitted or top-dose-only effect, or effect the other way; inactive = flat fitted curve, though single readings scatter; tested in HEK293 cells; about a fifth of its hits are not listed in these tables; further: on the % scale 0 is the no-effect control and ±100 the full control effect; luciferase read-out
# NS1 inh – blocks influenza NS1 protein function; S. cerevisiae slowed by influenza A NS1, growth recovery by OD600; 270,000 tested, 0.4% active; Potency, µM (highest dose often 46.1 µM), for the others: at the highest dose activity, positive = more growth; active means well fitted rising curve with a large enough effect; inconclusive means small, poorly fitted or top-dose-only effect; inactive means no such curve, though single readings can be large or run the other way; further: nearly all actives have a fitted effect of over 50% in size
#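 Growth recovery, yeast-based: influenza A NS1 expressed in S. cerevisiae causes slow growth, and suppressors are detected by OD600. The parent strain without NS1 is used as positive control.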
# Numbers without * were called inactive; ? = inconclusive; nt = not tested or not shown; [ ] = dose if it differs, or a comment. Unless noted, the call rests on the fitted dose curve; in most records, active means well fitted curve in the direction sought with a large enough effect; inconclusive means small, poorly fitted or top-dose-only effect, or another doubt; inactive means no such curve, though single readings can be large; an effect the other way counts as inactive or inconclusive. Potency means the concentration at half of the fitted maximal effect.
SMILES,Cruzain Triton,Cruzain noTriton,LASV entry inh,RE007 growth inh,StopGo reporter,SARS PLpro yeast,Marburg entry inh,NS1 inh
O=C(CSc1ccccc1)N(c1ccc(Br)cc1)c1nccs1,-5.4%,-8.9%,7.3%,-5.8%,?,-23.4%,2.8%,-13.0%
CC(NC(=O)c1ccc(Cl)cc1)c1nnc(SCc2ccc([N+](=O)[O-])cc2)n1C (stereo not drawn),-1.2%,1.6%,-0.3%,-4.2%,17.4%,0.6%,-5.4%,0.2%
CS(=O)(=O)c1ccc(C(=O)Nc2cc(S(C)(=O)=O)ccc2Cl)cc1,-1.8%,8.7%,21.8%,0.8%,?,-6.2%,-5.7%,-3.1%
O=c1[nH]c(N/N=C/c2cc3c(cc2[N+](=O)[O-])OCO3)nc2ccccc12,nt,nt,nt,-25.6%,1.9%,-1.9%,nt,4.3%
COc1cccc(CN(C)CC(=O)Nc2cccc(S(=O)(=O)N(C)c3ccccc3)c2)c1OC,nt,nt,?,-19.8%,?,nt,?,nt
C/C=C/Cn1c(Br)nc2c1c(=O)n(C)c(=O)n2C,-1.0%,1.0%,3.2%,2.8%,nt,-12.8%,?,-3.2%
FC(F)(F)c1ccccc1NC(=S)NN1CCOCC1,0.2%,2.8%,3.8%,-25.1%[3.69 µM],-9.6%,14.9%,1.7%,-8.5%
Cc1cc(C)c(NC(=O)COC(=O)Cn2nc(-c3ccccc3)oc2=O)c(C)c1,nt,nt,28.7%,5.9%,-2.2%,-3.3%,-3.4%,nt
O=C(Nc1cc(N2CCCCC2)ncn1)c1ccccc1,nt,nt,-3.0%,-4.4%,16.4%,-1.6%,-29.3%[46.1 µM],-11.1%
O=S(=O)(c1ccc(Cl)cc1)N1CCC(c2ccncc2)CC1,0.0%,3.4%,?,nt,?,nt,nt,nt
COCCCN1CC(=O)N2C(c3ccc(C)cc3)c3[nH]c4ccccc4c3C[C@H]2C1=O (stereo partly drawn),nt,nt,-3.7%,3.5%,24.5%,-0.3%,-4.4%,4.6%
CCNC(=O)c1ccc(-n2nc(C)cc2-c2ccccc2)cc1,-1.6%,-3.4%,0.5%,-5.3%,0.0%,-4.8%,9.5%,-17.1%
CN(C)CC(O)CN(c1ccccc1)c1ccccc1 (stereo not drawn),nt,nt,-2.6%,-12.4%,-9.9%,0.3%,?,1.2%
CCN(CC)C(=O)CSc1nc2ccccc2c(=O)n1CC,-1.1%,-3.0%,-7.9%,-4.7%,0.0%,4.2%,-4.0%,-13.2%
O=C(Nc1ccc(Br)cc1)c1cc(-c2cccs2)nc2ccccc12,-6.0%,-1.9%,-5.5%[46.1 µM],nt,0.0%,nt,7.9%[46.1 µM],nt
Fc1cccc(CN2CCN(Cc3nc(-c4cnccn4)no3)CC2)c1,nt,nt,9.4%,-13.8%,-1.3%,-1.1%,-4.4%,1.4%
CCOc1ccc(C(=O)NCc2ccccc2OC)cc1,-2.3%,0.6%,?,39.9%,36.9%[activator],3.3%,28.0%,?
Cc1cc(C)n(C(=O)CCCCCC(=O)n2nc(C)cc2C)n1,-1.5%,16.3%,-6.7%,0.0%,-16.6%,-3.4%,-1.7%,-9.4%
CC(C)c1ccc(N2C(=O)CSC23C(=O)N(Cc2ccccc2F)c2ccccc23)cc1 (stereo not drawn),2.5%,26.9%,0.4%[46.1 µM],nt,?,nt,nt,nt
COc1ccc(CNC(=O)CSc2nc(-c3ccc(OC)c(OC)c3)cc(C(F)(F)F)n2)cc1,-4.7%,-3.7%,-17.0%[46.1 µM],nt,-5.6%,nt,?,nt
CCOC(=O)c1ccccc1NS(=O)(=O)c1ccccc1F,-2.5%,-13.6%,-4.7%,10.1%,-2.4%,?,7.5%,-10.8%
Cc1ccc(OCCOC(=O)c2cc(S(=O)(=O)N3CCCCC3)ccc2N2CCOCC2)cc1,nt,nt,?,-4.5%,?,-4.1%,?,nt
O=Nc1c(O)n(Cc2ccc(Cl)cc2Cl)c2ccccc12,-18.5%,-9.0%,-3.3%,22.4µM*,-28.0%,-39.6%,-25.7%,-80.7%
CCn1c(SCC(=O)Nc2nc(C)c(C)s2)nnc1-c1ccco1,-0.8%,0.9%,24.8%,0.7%,15.3%,5.7%,-13.4%,-10.4%
CC(=O)C1=C(O)C(=O)N(c2ccc(O)cc2)C1c1ccc([N+](=O)[O-])cc1 (stereo not drawn),nt,nt,-1.8%[46.1 µM],3.5%,-13.2%,0.4%,1.1%[46.1 µM],-30.7%
C=CCSc1nc(NC)c2sccc2n1,-1.3%,5.1%,16.2%,?,-7.2%,-31.1%,0.1%[46.1 µM],-163.9%
O=C(CCl)Nc1ncc(S(=O)(=O)c2ccc([N+](=O)[O-])cc2)s1,nt,nt,-14.1%[46.1 µM],-4.1%,?,-0.1%,6.5%[46.1 µM],nt
COc1ccccc1OCC(=O)OCC(=O)NC1CCCCC1,nt,nt,-4.2%[46.1 µM],3.9%,-5.0%,-11.8%,?,nt
CN(C)c1ccc(-c2nc(-c3ccccn3)no2)cc1[N+](=O)[O-],-1.4%,-18.8%,?,nt,-69.1%,nt,?,nt
COc1ccc(N(C(=O)c2ccncc2)S(=O)(=O)c2cccs2)cc1,nt,nt,22.8%,3.5%,-6.1%,-10.0%,-18.3%[46.1 µM],-81.2%
COc1cc(C(=O)Oc2cc(N)n(S(=O)(=O)c3ccccc3)n2)cc(OC)c1OC,nt,nt,-11.8%,-12.7%,-1.4%,-2.9%,4.5%[46.1 µM],-10.3%
CCOC(=O)Nc1cc2c(cc1C(C)=O)OCO2,2.1%,-18.6%,-8.1%,-4.3%,nt,4.7%,14.0%,-0.3%
Cn1c(N)c(C(=O)CSc2n[nH]c(-c3ccccc3)n2)c(=O)n(C)c1=O,nt,nt,12.3%,-3.0%,2.5%,-4.2%,?,nt
O=C(NCc1ccc(Cl)cc1)N1CCN(S(=O)(=O)c2ccccc2)CC1,nt,nt,?,-8.6%,-5.9%,-1.4%,-15.7%[46.1 µM],-7.0%
CCOC(=O)c1cccc(N2C(=O)c3ccccc3S2(=O)=O)c1,0.3%,6.7%,-15.9%,-12.5%[3.69 µM],-12.0%,-3.0%,-0.4%,-42.5%
CSc1cccc(NC(=O)C2CCN(S(=O)(=O)c3ccc4c(c3)CCCN4C(=O)C3CCC3)CC2)c1,-1.3%,-29.7%,-29.7%[46.1 µM],nt,-21.0%,nt,nt,nt
CCN(CC)S(=O)(=O)c1cc(C(=O)OCC(=O)c2ccc3c(c2)NC(=O)CO3)ccc1F,-4.8%,13.8%,0.5%,-9.9%,?,-6.4%,?,-15.7%
COc1ccc(C(=O)NCCS(=O)(=O)NCc2ccc3c(c2)OCO3)cc1,nt,nt,8.8%,8.0%,0.2%,4.3%,-29.2%,nt
COc1ccc(-c2nc3ccccc3o2)cc1NC(=O)c1cc(Br)ccc1OC,1.5%,0.1%,1.9%[46.1 µM],nt,5.0%,nt,nt,nt
O=C(NNC(=O)c1ccc(SCC2CCCO2)c([N+](=O)[O-])c1)c1ccc(Cl)c([N+](=O)[O-])c1 (stereo not drawn),4.7%,11.1%,-5.0%,0.7%,-16.0%,-18.9%,-13.1%,6.0%
O=C(COC(=O)c1ccc(Cl)c([N+](=O)[O-])c1)Nc1ccccc1OC(F)F,-5.0%,-13.4%,13.6%,-28.9%,-21.9%,-4.7%,?,-4.5%
N#Cc1ccccc1OCCN1C(=O)c2ccccc2C1=O,1.7%,-2.3%,19.6%,22.5%,-0.7%,-3.7%,?,6.0%
CCc1ccc(CNC(=O)C2CCCN(c3nc4ccccc4o3)C2)cc1 (stereo not drawn),-2.0%,1.8%,-9.1%,7.1%,16.8%,-4.6%,-14.6%,3.4%
O=C(Nc1ccc2nc3ccccc3nc2c1)c1ccccc1,-3.9%,7.2%,11.2µM*,-15.1%,-24.0%,-55.7%,?,-8.5%
CCn1c(Oc2ccccc2F)nc2c1c(=O)n(C)c(=O)n2C,nt,nt,nt,13.0%,-24.0%,-5.7%,nt,-10.8%
CC(=O)c1ccc(N2CCN(c3ccc(S(=O)(=O)NCCN(C)C)cc3[N+](=O)[O-])CC2)cc1,nt,nt,nt,11.9%,-3.9%,-2.2%,nt,-3.1%
Cc1ccc(/C=N/NC(=O)c2nnn(-c3nonc3N)c2-c2ccccc2)o1,nt,nt,nt,-2.5%,-15.3%,0.3%,nt,8.0%
CN(C)S(=O)(=O)c1ccc(C(=O)NCc2ccccn2)cc1,nt,nt,13.0%[46.1 µM],-9.0%,7.6%,0.0%,15.5%[46.1 µM],nt
O=C(O)Cc1coc2cc3c(cc12)CCC3,nt,nt,?,12.1%,-1.9%,-1.5%,9.4%,nt
CC(C)(C)OC(=O)N1CCC[C@H]1C(=O)O,nt,nt,nt,2.7%,-9.2%,11.4%,nt,0.5%
CCc1sc(Nc2cccc(Cl)c2)nc1-c1cc2cccc(OC)c2oc1=O,-0.2%,?,?,nt,4.5%,nt,nt,nt
O=C(Nc1ccc(C(=O)NCCCN2CCN(c3ccccc3)CC2)cc1)C1=CSCCO1,nt,nt,nt,-21.2%,-13.3%,5.6%,nt,11.2%
Cc1[nH]c2ccccc2c1C(=O)CSc1nc2ccccc2[nH]1,-10.7%,14.2%,?,5.1%,nt,5.6%,?,-6.1%
Cc1nnc(OCC(=O)NCCC2=CCCCC2)c2ccccc12,4.3%,2.3%,-9.5%,-0.5%,nt,18.1%,3.5%,-15.4%
CC(C)c1ccc(-c2noc(SCC(=O)N3CCN(c4ccc(F)cc4)CC3)n2)cc1,3.4%,-6.4%,20.8%[46.1 µM],nt,37.2%[activator],nt,nt,nt
CC1(C)Cc2c(sc3c2c(N)nc(=S)n3Cc2ccc(Br)cc2)CO1,nt,nt,2.6%,-0.4%,-6.4%,1.7%,15.9%[46.1 µM],-1.3%
COc1ccc(NS(=O)(=O)c2ccc(NC(=S)NC(=O)C(C)C)cc2)cc1,0.6%,-15.0%,-19.4%,-11.9%,56.5%[activator],7.8%,?,-1.2%
